# NS1 function inh – inhibitors of influenza NS1 protein function; S. cerevisiae slowed by influenza A NS1, growth recovery by OD600; Potency, µM (series often up to 46.1 µM), inactives show at the top dose activity, positive = more growth; 270,000 compounds, 0.4% hits; AID 2326; also: actives are rising curves; nearly all actives have a fitted effect of over 50% in size
#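 Compounds were scored for reversing the slow growth caused by influenza A NS1 in S. cerevisiae, measured by optical density at 600 nm. Assay medium contained 2% galactose at pH 6.0; NS1-free yeast of the same strain were the positive control.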
# 2A StopGo – lowers the luciferase signal of an FMDV 2A StopGo reporter; human cells with a luciferase reporter of 2A StopGo recoding; control for the full effect not named in the record; Potency, µM (highest dose often 57.9 µM), for inactives: at the top dose signal change, negative = less light; 410,000 compounds, 1.2% hits; AID 1159524; active = well fitted falling curve with a large enough effect; inconclusive = small, poorly fitted or top-dose-only effect; inactive = no such curve, though single readings can be large or run the other way; tested in HEK293T cells; also: % is scaled to controls: 0 for no effect and ±100 for the full control effect; nearly all actives have a fitted effect of over 45% in size; luciferase light after 4 h
# Cruzain Triton – blocks cruzain activity in presence of Triton detergent. P25779. purified cruzain, Z-FR-AMC fluorescence, 0.01% Triton. Potency, µM, for the others: max response, negative = inhibition, usual class: inhibitors. 200,000 compounds, 0.43% hits. AID 1478; active = well fitted curve in the direction sought with a large enough effect; inconclusive = small, poorly fitted or top-dose-only effect, or another doubt; inactive = no such curve, though single readings can be large; an effect the other way counts as inactive or inconclusive;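 also: plate controls were neutral wells for no effect and buffer without enzyme for full effect; nearly all actives have a fitted effect of over 40% in size; top concentration of the series not given in the record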
# Target sequence (P25779 123-467 limits assumed): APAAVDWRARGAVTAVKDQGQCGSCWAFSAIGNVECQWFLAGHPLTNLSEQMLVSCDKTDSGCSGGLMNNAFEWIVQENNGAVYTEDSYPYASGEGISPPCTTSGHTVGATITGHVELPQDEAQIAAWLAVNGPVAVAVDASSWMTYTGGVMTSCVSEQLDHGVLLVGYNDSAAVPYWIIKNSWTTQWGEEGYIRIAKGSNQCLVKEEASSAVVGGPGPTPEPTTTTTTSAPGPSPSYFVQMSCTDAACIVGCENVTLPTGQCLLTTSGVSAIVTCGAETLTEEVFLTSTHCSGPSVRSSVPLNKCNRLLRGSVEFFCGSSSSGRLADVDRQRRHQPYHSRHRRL
#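 Enzyme 1.5 nM, Z-FR-AMC 2 uM, NaOAc 100 mM pH 5.5, DTT 5 mM, Triton X-100 0.01%; 15 min RT compound preincubation; kinetic ex360/em450, 60 s delta.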
# Marburg entry inh – inhibitors of Marburg virus binding or cell entry | Potency, µM (series often up to 37.8 µM), for inactives: at the top dose activity change, negative = inhibition, hits mostly inhibitors | 300,000 compounds, 1.8% hits | AID 540276 | Marburg virus pseudotyped entry inhibition, cell reporter; control for the full effect not named in the record; about a third of the inactives were read at about 46 µM; active = well fitted inhibition curve with a large enough effect; inconclusive = small, poorly fitted or top-dose-only effect, or effect the other way; inactive = flat fitted curve, though single readings scatter; tested in HEK293 cells; about a fifth of its hits are not listed in these tables; also: % is scaled to controls: 0 for no effect and ±100 for the full control effect; luciferase read-out
# RE007 growth inh – less growth of the S. pombe RE007 Vpr strain; S. pombe RE007 Vpr strain, BacTiter-Glo ATP luminescence, 24 h; control for the full effect not named in the record; 360,000 compounds, 0.21% hits; Potency, µM (series often up to 92.2 µM), inactives show at the highest dose activity change, negative = less growth; active = well fitted falling curve with a large enough effect; inconclusive = small, poorly fitted or top-dose-only effect; inactive = no such curve, though single readings can be large or run the other way;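 also: % is scaled to controls: 0 for no effect and ±100 for the full control effect; nearly all actives have a fitted effect of over 50% in size; the assay follows cell death caused by Vpr and the record does not say whether a fall means rescue or toxicity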
#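 Fission yeast strain RE007, carrying one chromosomally integrated HIV-1 vpr copy, was seeded at OD 0.01 in PMG+AL medium with 23 nL pinned compound. After 24 h at 30 °C and 99% humidity, viability was read by BacTiter-Glo luminescence.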
# Cruzain inh noDet – cruzain (T. cruzi) inhibition without detergent. P25779. purified cruzain, Z-FR-AMC fluorescence, no detergent. Potency, µM, for inactives: max response, negative = inhibition, hits mostly inhibitors. 200,000 compounds, 2.3% hits. AID 1476; active = well fitted curve in the direction sought with a large enough effect; inconclusive = small, poorly fitted or top-dose-only effect, or another doubt; inactive = no such curve, though single readings can be large; an effect the other way counts as inactive or inconclusive;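 also: plate controls were enzyme without inhibitor for no effect and buffer without enzyme for full effect; nearly all actives have a fitted effect of over 40% in size; top concentration of the series not given in the record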
#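 Detergent-free condition (0.00005% Triton X-100) in acetate buffer pH 5.5 with DTT. 1.5 nM enzyme and compound were pre-mixed 15 min, then 2 uM Z-FR-AMC substrate added; reaction progress from fluorescence change between first and third reads (60 s).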
# SARS PLP yeast – SARS-CoV PLP inhibition in yeast. S. cerevisiae expressing SARS-CoV PLpro, growth rescue; control for the full effect not named in the record. Potency, µM (titrated, usually from 32.9 µM), without a hit: at the top dose activity, positive = growth rescue. 330,000 compounds, 0.19% hits; also: 0% is about no effect; nearly all actives have a fitted effect of over 55% in size; growth read by luminescence after 48 h
# LASV entry inh – Lassa virus entry inhibition; 300,000 compounds, 1.2% hits; Potency, µM (titrated, usually from 37.9 µM), for the others: at the highest dose activity change, negative = inhibition, most hits filed as inhibitors; Lassa virus pseudotype entry inhibition, cell reporter; control for the full effect not named in the record; AID 540256; active means well fitted inhibition curve with a large enough effect; inconclusive means small, poorly fitted or top-dose-only effect, or effect the other way; inactive means flat fitted curve, though single readings scatter; tested in HEK293 cells; also: % is scaled to controls: 0 for no effect and ±100 for the full control effect; nearly all actives have a fitted effect of over 50% in size; luciferase read-out
# The depositor's hits bear a star; ? = inconclusive; / = no result given; & = joins results of further samples; [ ] = another dose, or the depositor's remark. Unless noted, calls follow the shape of the dose curve; as a rule, active means well fitted rising curve with a large enough effect; inconclusive means small, poorly fitted or top-dose-only effect; inactive means no such curve, though single readings can be large or run the other way. Potency is read from the fitted curve at half-maximal effect.
SMILES,NS1 function inh,2A StopGo,Cruzain Triton,Marburg entry inh,RE007 growth inh,Cruzain inh noDet,SARS PLP yeast,LASV entry inh
COc1cccc(C(C)N(C)Cc2nc(COc3ccccc3)no2)c1 (stereo not given),-13%,-25%,/,/,9%,/,0%,/
C[C@H](C(=O)O)c1n[nH]c(=O)c2ccccc12,1%,12%,2.2%,13%,-2%,24%,1%,11%
O=C(c1cc2ccccc2o1)N1CCN(C/C=C/c2ccccc2)CC1,-33%,-28%,/,-26%[46.1 µM],-4%,/,-4%,?
COCCn1c(SCC(=O)Nc2cccc(S(N)(=O)=O)c2)nc2cc(Cl)ccc2c1=O,/,-3%,/,?,-23%,/,-1%,6%
c1ccc2c(Cn3ccnc3)c[nH]c2c1,3%,-5%,3.1%,-4%,-1%,-3%,-6%,-3%
CCCn1c(SCC(=O)Nc2nnc(C)s2)nnc1C1CC1,-11%,-23%,/,/,6%,/,0%,/
O=C(COc1ccccc1)N1CCN(c2ncnc3c2cnn3-c2ccccc2)CC1,-12%,-16%,0.3%,-34%&-34%,8%,?,-10%,-3%
COCCn1c(SCCN2CCOCC2)nc2c1c(=O)[nH]c(=O)n2C,6%,-13%,1.1%,/,13%,1%,0%,/
C=CCn1c(SCC(C)=O)nc2sc3c(c2c1=O)CCC3,-4%,-18%,/,/,-14%,/,-1%,/
CCOc1ccc(C(=O)c2cn(CC(=O)Nc3ccc(OC)cc3)c3cc4c(cc3c2=O)OCO4)cc1,/,0%,-0.8%,1%[46.1 µM],/,1%,/,24%[46.1 µM]
O=C(OCn1ncc(Cl)c(Cl)c1=O)c1cccc(C(F)(F)F)c1,-164%,14µM*,-2.0%,?,45µM*,5%,-31%,?
OC(CSc1c(Cl)cccc1Cl)CN1CCN(c2ccccc2F)CC1 (stereo not given),-27%,?,-7.0%,?,2%,-5%,1%,-2%
Cc1ccc(-n2cc(CNCCn3nc(C)cc3C)c(-c3ccc(F)cc3)n2)cc1,4%,-26%,/,?,0%,/,-3%,?
CCC(=O)N1CCN(c2ccc(NC(=O)c3c(F)c(F)c(OC)c(F)c3F)cc2)CC1,-4%,-16%,3.3%,3%,-3%,1%,4%,-7%
Cc1cc(NC(=O)CSCC(=O)N(C)Cc2ccc(Cl)c(Cl)c2)no1,2%,-28%,/,/,-16%,/,4%,/
CN(c1ccccc1)S(=O)(=O)c1ccc(C(=O)Nc2nnc(C3CC3)s2)cc1,7%,-4%,/,16%[46.1 µM],-10%,/,1%,4%
COC(=O)C1=C(C)NC(C)=C(C(=O)OC)C1c1ccc(C)o1,-2%,3%,/,7%[46.1 µM],1%,/,1%,-10%[46.1 µM]
O=C(Nc1ccccc1)Nc1ccc2nnsc2c1,-53%,31%[activator],/,-23%&-23%,-7%,/,-4%,30%
COc1ccc(C(=O)NCc2nnc(SCC(=O)N3CCCC3)o2)cc1OC,-4%,-15%,/,20%,10%,/,10%,2%
Cc1ccc(S(=O)(=O)N2CCN(CC(=O)N/N=C/c3ccc(Br)s3)CC2)cc1,-15%,-17%,-5.7%,?,1%,7%,-8%,?
COc1ccc([C@@H]2[C@@H]3C(=O)N(C(C)(C)C)C(=O)[C@@H]3[C@]3(Cc4ccc(Cl)cc4)C(=O)N(c4cccc(C)c4)C(=O)N23)cc1,1%,-7%,/,/,-5%,/,-2%,/
CCCNC(=O)C1CCC(CNS(=O)(=O)c2cccc3nsnc23)CC1 (stereo not given),-9%,-6%,/,/,-9%,/,-1%,/
CCC(Cn1nnc2ccccc2c1=O)NC(=O)Nc1ccc(C)c(C)c1 (stereo not given),/,5%,-2.8%,2%[46.1 µM],/,-12%,/,7%[46.1 µM]
COc1ccc(/C=C/c2cc(C(=O)O)c3ccccc3n2)cc1,3%,2.8µM*,/,?,?,/,-4%,?
COc1ccc(C(CNC(=O)c2ccc(S(=O)(=O)Nc3ccccc3C)cc2)N2CCOCC2)cc1 (stereo not given),/,0%,/,-8%,-19%,/,-3%,?
O=C(Nc1ccc(F)cc1)N1CCN(C(=O)C2CCCO2)CC1 (stereo not given),0%,4%,/,3%[46.1 µM],-14%,/,-6%,25%[46.1 µM]
Cc1cc(=O)[nH]c(SCC(=O)Nc2nnc(SCc3ccccc3)s2)n1,/,?,/,?,-1%,/,-3%,?
COc1ccc(NC(=O)CN(C2CCCCC2)S(C)(=O)=O)cc1Cl,0%,-26%,4.5%,-18%,-5%,7%,-6%,-5%
O=C(NCCc1ccccc1)C1CCC(=O)N(Cc2cccc(C(F)(F)F)c2)C1 (stereo not given),11%,-5%,/,-22%,4%,/,-7%,-10%
O=C(OCN1C(=O)c2ccccc2C1=O)c1cccc(OC(F)F)c1,8%,-21%,/,-1%[46.1 µM],5%,/,3%,-22%
O=C(Nc1cccc(-c2nc3cccnc3s2)c1)c1ccc(Cl)nc1,2%,13%,/,2%[46.1 µM],-23%,/,0%,21%[46.1 µM]
C=C(C)Cn1c(CCNC(=O)c2ccco2)nc2ccccc21,0%,0%,/,?,2%,/,1%,17%[46.1 µM]
Cc1ccsc1/C=C1/CN(C)Cc2c1nc1ccccc1c2C(=O)O,-3%,-1%,/,17%[46.1 µM],-7%,/,-1%,-20%
O=C(NC1CCCC1)C(c1ccncc1)N(Cc1cccs1)C(=O)c1csnn1 (stereo not given),-54%,18%,-5.7%,5%,1%,?,18%,0%
N#CCCCSc1ncccc1-c1nc2ccccc2[nH]1,-11%,0%,-12%,4%,-10%,-14%,6%,-9%
Cc1ccc(-n2nc(C)c3c(C)c(CCC(=O)Nc4ccc(CN5CCCC5)cc4)c(C)nc32)cc1,-1%,?,/,?,0%,/,1%,?
COc1cc(C2NC(C(=O)O)Cc3c2[nH]c2ccccc32)cc(OC)c1OC (stereo not given),2%,/,-8.5%,-9%,5%,-2%,0%,17%
CCOc1ccc(NC(=O)C2CCN(c3nnc(C)c4c(C)n(-c5ccccc5)nc34)CC2)cc1,/,0%,-2.6%,/,/,-1%,/,-5%[46.1 µM]
COc1ccc(OCCCC(=O)NCCc2ccccc2)cc1,0%,-13%,-0.2%,-1%,-5%,-2%,-17%,-19%
CCCSC1=N/C(=C\c2ccc3c(c2)OCO3)C(=O)S1,-1%,13%,-4.1%,0%,-9%,-5%,-6%,-19%
CSc1ccccc1C(=O)C1CCCN(C(=O)NC(C)C)C1 (stereo not given),7%,7%,/,-24%[46.1 µM],0%,/,0%,-18%[46.1 µM]
Cc1ccccc1Oc1nnc(-c2cccs2)c2ccccc12,-1%,0%,-6.8%,?,-4%,-2%,32%,4%
CCN(C(=O)COC(=O)CSc1ccc(C(N)=O)cc1[N+](=O)[O-])C1CCCCC1,0%,8%,/,1%,5%,/,5%,25%
COc1ccccc1NC(=S)NC1CCCCCCCCCCC1,2%,-12%,/,0%,18%,/,0%,/
Cn1c(=O)cc(OCC(=O)NCCC2=CCCCC2)c2ccccc21,/,-8%,/,13%[46.1 µM],-10%,/,-3%,-2%
COc1ccc(OCc2nnc3n2N=C(c2ccc(C)cc2)CS3)cc1,-83%,-9%,-14%,/,17%,-2%,0%,/
Cc1ccc(C(=O)NCC(=O)OCC(=O)NCCc2ccccc2)s1,0%,4%,/,-7%[46.1 µM],-7%,/,-2%,12%
CCOC(=O)c1cc2occc2n1Cc1ccc(F)cc1,-3%,-19%,-8.4%,25%[46.1 µM],-16%,11%,/,-13%
O=[N+]([O-])c1ccccc1/C=C/C=N/n1c(-c2ccc(Cl)cc2)n[nH]c1=S,18%,0%,-6.9%,1%[46.1 µM],-7%,11%,7%,-9%
O=C(NC1CCCCC1)c1ccc(COc2ccccc2)o1,/,-17%,/,12%[46.1 µM],-19%,/,6%,?
CCOC(=O)CN1C(=O)/C(=C/c2cccc(Br)c2)Oc2ccccc21,3%,-14%,/,/,-11%,/,-1%,/
COc1ccc2nc(NC(=O)c3ccccc3[N+](=O)[O-])sc2c1,5%,41%[activator],/,/,-12%,/,7%,/
COc1ccc(NC(=O)CSc2nccc(C)n2)cc1,2%,4%,-0.5%,11%[46.1 µM],27%,9%,?,9%
Cc1cccc(-c2nnc(SCC3CNC(=O)O3)n2-c2ccc(Cl)cc2)c1 (stereo not given),3%,-39%,1.0%,-30%,?,21%,1%,-10%
COc1ccc(-c2ccc(OC(=O)NC3CCS(=O)(=O)C3)cc2)cc1 (stereo not given),-11%,0%,/,/,-18%,/,-1%,/
COc1ccc(C(C(C(=O)c2ccco2)N2CCOCC2)N2CCOCC2)cc1 (stereo not given),-10%,27%,2.9%,3%,-6%,2%,13%,15%
CC(=O)c1cccc(NC(=O)CN(Cc2ccccc2)S(C)(=O)=O)c1,-2%,16%,3.7%,5%,-11%,-1%,1%,0%
CC(=O)Nc1ccc(S(=O)(=O)NCCC(=O)OC(C)C(=O)c2ccc(C)cc2)cc1 (stereo not given),-10%,?,/,18%[46.1 µM],9%,/,4%,-17%[46.1 µM]
COC(=O)c1sc(N)c(C(=O)OC)c1COC(=O)C1CC(=O)N(Cc2ccco2)C1 (stereo not given),8%,-23%,-12%,0%,9%,?,8%,-11%
O=C(c1cccc(F)c1)N1CCN(S(=O)(=O)Cc2ccccc2)CC1,?,-16%,/,/,12%,/,1%,/
CC(C)CCN(C(=O)Cc1ccccc1F)c1c(N)n(Cc2ccccc2)c(=O)[nH]c1=O,/,0%,/,15%[46.1 µM],5%,/,4%,-23%[46.1 µM]
COc1ccccc1OC(C)C(=O)Nc1cccc(-c2nc3ccccc3s2)c1 (stereo not given),/,-6%,-6.9%,-11%[46.1 µM],/,-10%,/,8%[46.1 µM]

# Compound activity deposited in PubChem by National Center for Advancing Translational Sciences (NCATS).
